High-throughput results from PubChem.
Sa helicase inh = blocks Staphylococcus aureus DNA helicase; purified S. aureus helicase, fluorescence unwinding assay; about half of the hits fall short of the stated cut; inhibition, %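 (tested at about 80 µM)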; 120,000 compounds, 0.05% hits;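 active means both duplicates at 50% or more, or one of them with a favoured structure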;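 further: 0% = mean of negative control wells and 100% = mean of positive control wells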
MgrA-DNA mod = alters Staphylococcus aureus MgrA binding to DNA; fluorescence polarization; inhibition, %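 (about 10 µg/mL by stock and volumes)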; 84,000 compounds, 0.13% hits; AID 602314;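 active means above 50% in either of two replicates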;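 further: 0% = protein plus DNA without compound and 100% = DNA alone without protein; higher means less MgrA bound to DNA so lower polarization; one replicate is shown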
* hit, by the source's call; nt = not tested or not shown; & = joins results of further samples. Only part of the results is shown. The share of hits here may be higher or lower than overall.

item	Compound	MgrA-DNA mod	Sa helicase inh
1	O=C(O)c1cc(=O)c2c(OCC(O)COc3cccc4oc(C(=O)O)cc(=O)c34)cccc2o1	3.5&2.8	nt
2	CCCC1(C)NC(=O)c2ccccc2O1 (configuration not stated)	1.1	-3.0
3	CCN(CC)CCCNc1nc(-c2ccccc2)nc2ccccc12	-1.8	nt
4	Cc1nc2cc(-n3c(O)c[nH]c3=O)ccc2s1	3.7	-17.0
5	CCOC(=O)CCc1c(C)c(C#N)c2nc3ccccc3n2c1Cl	0.6	7.0
6	CC(=O)OCC(=O)[C@H]1CCC2C3CCC4=CC(=O)CC[C@]4(C)C3CC[C@@]21C (some centres not stated)	0.7	nt
7	Cc1oc(-c2ccc(Cl)cc2)nc1CS(=O)CC(=O)NC(C)C (configuration not stated)	nt	8.0
8	CNC(=O)Nc1ccc(C(C)(C)C)cc1Br	-0.2	nt
9	NC(=O)c1cc(S(=O)(=O)N2CCc3ccccc32)cs1	nt	23.0
10	CC(C(=O)NC1CCCC1)n1cc(Br)ccc1=O (configuration not stated)	nt	8.0
11	O=C(Oc1ccc2oc(=O)sc2c1)c1ccc(Br)cc1	-2.0	0.0
12	CCOC(=O)c1c(CSc2nnc(Cc3csc(C)n3)o2)nc2ccccc2c1C	nt	16.0
13	Cc1ccc(C2=NN(C(=O)CNc3ccc(S(=O)(=O)N4CCCC4)cc3)C(c3ccco3)C2)cc1 (configuration not stated)	nt	16.0
14	O=C(COc1nc2ccccc2nc1N1CCOCC1)NCCc1ccc(F)cc1	nt	14.0
15	CC1CN(C(=O)C2CCCO2)CC(C)O1 (configuration not stated)	-0.2	-3.0
16	COc1cccc(NC(=S)Nc2ccccc2-n2cccc2)c1	5.6	nt
17	Cc1nn(CCCC(=O)NC2CCCCC2)c(=O)c2nccn12	nt	17.0
18	OCc1nc2ccccc2n1CC1CC1(Cl)Cl (configuration not stated)	nt	-17.0
19	O=C(CS(=O)(=O)c1ccc(C(F)(F)F)cc1Cl)Nc1ccc(F)cc1	-1.8	10.0
20	C=CCN1C(=O)NC2(CCCCC2)C1=O	-0.4	nt
21	NS(=O)(=O)c1ccc(NC(=O)CSC2CCCCC2)cc1	nt	-8.0
22	CCN(CCCNc1nc(-c2cc(OC)ccc2OC)no1)c1ccccc1	0.1	6.0
23	N=C1SCC(=O)N1C(=O)c1ccccc1	-0.8	10.0
24	Cc1oc(C(=O)O)cc1COc1ccccc1Cl	1.4	13.0
25	O=C(Nc1ccc(Cl)cc1)C(O)c1ccccc1 (configuration not stated)	-2.5	nt
26	C=CCn1c(=N)n(CC(=O)c2ccco2)c2ccccc21	nt	-12.0
27	Oc1c(C=C2N=c3ccccc3=N2)sc(=S)n1-c1ccc(F)cc1	-1.2	34.0
28	O=C(C1CC(=O)N(C2CCCC2)C1)N1CCC(Cc2ccccc2)CC1 (configuration not stated)	nt	0.0
29	COc1ccc(Cn2nnc3c(=O)[nH]c(C(=O)NCCc4ccc(F)cc4)nc32)cc1OC	nt	23.0
30	O=C(O)c1ccccc1C(=O)N1CCN(c2ncccn2)CC1	-4.8	nt
31	O=c1c(-c2ccc(O)cc2)coc2cc(O)ccc12	4.3	nt
32	CCOC(=O)/C(C#N)=C/c1cn(CCOc2ccccc2)c2ccccc12	nt	23.0
33	COc1cccc2cc(-c3ccc4c(c3)OCO4)c(=O)oc12	nt	4.0
34	N#Cc1oc2ccccc2c1N=Cc1c(O)n(-c2cccc(C(F)(F)F)c2)c(=O)c2ccccc12	nt	-10.0
35	O=S(=O)(N/N=C/c1ccc(N2CCOCC2)cc1)c1ccccc1	nt	-10.0
36	O=C1/C(=N\O)c2cccc3cccc1c23	nt	30.0
37	S=C(NN=C1CCCCC1)NC1CCCCC1	nt	-9.0
38	CNC(=O)CCC(=O)N1CCOc2ccc(C)cc21	-1.4	1.0
39	COC(=O)COc1cccc2c(=O)n(CC(=O)N3CCCc4ccccc43)ccc12	nt	11.0
40	Cc1ccc(S(=O)(=O)CNC(=O)C(C)(C)C)cc1	nt	-10.0
41	Cc1ccc(NC(=O)C(C)SC2=NCCS2)cc1 (configuration not stated)	-0.5	-16.0
42	Cc1cccc(C)c1NC(=O)CCCSc1nnnn1-c1ccccc1	1.6	-4.0
43	CN(c1nnc(NC(=O)Nc2ccccc2)s1)C1CCCCC1	nt	29.0
44	CC(=O)OCCn1c(=O)[nH]c(=O)c2nsnc21	5.1	19.0
45	O=C(Nc1nnc(CCOCCOCCc2nnc(NC(=O)c3ccccc3)s2)s1)c1ccccc1	-1.4	nt
46	CCOC(=O)c1c(C)[nH]c2ccc(O)cc12	-7.6	9.0
47	CC(Cc1nnc(SCC(=O)Nc2ccc(Cl)cn2)n1N)c1ccccc1 (configuration not stated)	nt	3.0
48	CCOC(=O)/C=c1\s/c(=C\c2cccs2)c(=O)n1CC(=O)N(C)C	nt	-13.0
49	CCCN(CC(=O)Nc1ccc(Cl)cc1Cl)Cn1nnc2ccccc21	nt	-17.0
50	O=C(O)C(Nc1ccc2c(c1)OCO2)c1ccccc1 (configuration not stated)	4.5	nt
51	O=C(COc1ccc(-n2cnnn2)cc1)NCCC1=CCCCC1	nt	-12.0
52	Cc1cc(C(=O)CN2CCN(C(=O)c3cccs3)CC2)c(C)n1-c1ccc(S(N)(=O)=O)cc1	nt	8.0
53	CNC(=O)NC(=O)COc1ccc2oc3c(c2c1)CCCC3	nt	1.0
54	COc1ccc(/C=N/NC(=O)c2ccc(Cl)c(S(N)(=O)=O)c2)cc1OCC(N)=O	nt	-11.0
55	Cc1cc(C)n(-c2nc3ccccc3nc2N2CCN(S(=O)(=O)c3cccs3)CC2)n1	-2.0	10.0
56	COc1ccc(-c2nc(/C=C/C(=O)O)cs2)cc1	nt	-5.0

More results:
item	Compound	MgrA-DNA mod	Sa helicase inh
57	Cn1ncc(C(=O)Nc2cccc(F)c2)c1-n1cccc1	-1.9	nt
58	COc1ccc(C(=O)Nc2ccc3oc(-c4cccc5ccccc45)nc3c2)cc1[N+](=O)[O-]	-1.4	nt
59	CCOC(=O)c1cnc(SCSc2nc3ccccc3s2)nc1N	-0.5	9.0
60	Clc1cc(Cl)cc(-n2cccc2)c1	-0.5	nt
61	Cc1cccc(-n2ncc3c(NCCc4ccccc4)ncnc32)c1	0.7	-10.0
62	CC1CC[C@@H]2N(C1)CC1C(CC[C@H]3C4CC(=O)[C@H]5CC(=O)CCC5(C)[C@H]4C[C@@H]13)[C@]2(C)O (some centres not stated)	nt	-10.0
63	COc1ccc(OC)c(C2c3cccn3CCN2S(=O)(=O)c2ccccc2C(F)(F)F)c1 (configuration not stated)	nt	-13.0
64	CCn1c(C(C)NC(C)=O)nc2ccccc21 (configuration not stated)	nt	-2.0

One compound at a time (already shown). Screens in order: MgrA-DNA mod | Sa helicase inh
`COc1ccc(C(=O)Nc2ccc3oc(-c4cccc5ccccc45)nc3c2)cc1[N+](=O)[O-]` as listed: -1.4 | nt
`Clc1cc(Cl)cc(-n2cccc2)c1` as listed: -0.5 | nt
`COc1ccc(OC)c(C2c3cccn3CCN2S(=O)(=O)c2ccccc2C(F)(F)F)c1` (configuration not stated) as listed: nt | -13.0
`Cn1ncc(C(=O)Nc2cccc(F)c2)c1-n1cccc1` as listed: -1.9 | nt
`CC1CC[C@@H]2N(C1)CC1C(CC[C@H]3C4CC(=O)[C@H]5CC(=O)CCC5(C)[C@H]4C[C@@H]13)[C@]2(C)O` (some centres not stated) as listed: nt | -10.0

Continuation:
item	Compound	MgrA-DNA mod	Sa helicase inh
65	NNc1cccc(Cl)n1	0.9	nt
66	COC(=O)c1ccc(OCC(O)CNS(=O)(=O)c2ccccc2C(=O)O)cc1 (configuration not stated)	nt	3.0
67	COc1cc(Cl)c(C)cc1NC(=O)Cn1c(=O)c2c(ncn2CC(C)C)n(CC(C)C)c1=O	nt	4.0
68	O=C(O)CC1SC(=Nc2ccc(O)cc2)NC1=O (configuration not stated)	-2.3	8.0&-1.0
69	CC1CC(C)CN(Cn2ncn(C)c2=S)C1 (configuration not stated)	nt	-6.0
70	N#CCc1ccc(Oc2ncnc3c2oc2ccccc23)cc1	nt	-6.0
71	O=C(Sc1nnnn1-c1ccccc1)c1cccc(Cl)c1	nt	-24.0
72	c1cncc(-c2nnc(SCC3CCCCC3)o2)c1	1.2	-3.0
73	COc1ccc(C(=O)c2cc3cc(Br)cc(Br)c3o2)cc1	-1.9	nt
74	COc1cc(CC(C#N)(CO)c2nc3ccccc3[nH]2)ccc1OC(F)F (configuration not stated)	nt	-15.0
75	CCOC(=O)c1ccc(/N=C/N(C)C)o1	nt	6.0
76	O=S(=O)(Nc1ccc(O)c(-c2c(O)ccc3ccccc23)c1)c1cccs1	nt	-21.0
77	COc1ccc(/C=C(\C#N)C(=O)OCc2nc(-c3ccc(C)cc3)no2)cc1	nt	20.0
78	CCN1CCN(C(=O)c2cc3c(=O)n(C)c4ccccc4c3n2C)CC1	nt	-16.0
79	COC(=O)CN1CCN(c2nc3c(c(=O)[nH]c(=O)n3C)n2Cc2ccc(Cl)c(Cl)c2)CC1	nt	5.0
80	Cc1ccc(C)c2c1c1ccccc1n2C	nt	-38.0

Three compounds out of the list above, arranged by the value under Sa helicase inh, low to high:
cpd | mol | MgrA-DNA mod | Sa helicase inh
34 | N#Cc1oc2ccccc2c1N=Cc1c(O)n(-c2cccc(C(F)(F)F)c2)c(=O)c2ccccc12 | nt | -10.0
42 | Cc1cccc(C)c1NC(=O)CCCSc1nnnn1-c1ccccc1 | 1.6 | -4.0
33 | COc1cccc2cc(-c3ccc4c(c3)OCO4)c(=O)oc12 | nt | 4.0

Next structures
item	Compound	MgrA-DNA mod	Sa helicase inh
81	O=C1CCC(C(=O)O)CC1	3.9	8.0
82	CN(C)S(=O)(=O)N(C)c1ccccc1	-1.4	2.0
83	O=C(COc1cccc(Cl)c1)Nc1ccc(OC(F)(F)F)cc1	-3.0	-18.0
84	CCOc1ccc(/C=C/C(=O)Nc2nc(-c3ccc(C)cc3)c(C)s2)cc1	4.0	17.0
85	Cc1ccc(C)c(NC(=O)CN(C)C(=O)c2ccccn2)c1	nt	-10.0
86	COc1cc(C=Nc2ccccc2)cc(OC)c1O	2.3	6.0
87	CCC(C)(C)C1CCC(N)CC1 (configuration not stated)	nt	10.0
88	CN(C)S(=O)(=O)c1ccc(C(=O)Oc2cc(=O)[nH]c3ccccc23)cc1	nt	0.0
89	CC(C)(C)OC(=O)N/N=C/c1cccc(O)c1	-1.1	16.0
90	CCc1nc2c(c(=O)c3ccccc3n2C)c(=O)n1Cc1ccco1	nt	-17.0
91	C=CCNC(=O)C1CC=CCC1C(=O)Nc1ccccc1C (configuration not stated)	-5.0	9.0
92	Cc1nn(-c2ccc(F)cc2)c2ncc(C(=O)N3CCN(C(=O)c4ccco4)CC3)c(Cl)c12	nt	5.0
93	Cc1ccc2onc(CNC(=O)N3CCC(C(N)=O)CC3)c2c1	nt	-10.0
94	Cc1ccc(S(=O)(=O)N2CCCC(C(=O)N3CCCCC3)C2)cc1 (configuration not stated)	nt	-9.0
95	CCc1ccccc1NC(=O)Cn1nnc(C(=O)O)c1C(=O)O	nt	37.0
96	CC(CC(=O)O)CC(=O)Nc1cc(C(F)(F)F)cc(C(F)(F)F)c1 (configuration not stated)	0.1	nt
97	CCN(CC)C(NC(=O)c1ccccc1)C(=O)c1ccccc1 (configuration not stated)	0.1	6.0
98	O=S1(=O)C=CC(N2CCCCC2)C1 (configuration not stated)	2.4	-8.0
99	O=S(=O)(CS(=O)(=O)c1ccccc1)c1ccccc1	0.1	nt
100	N#Cc1cccnc1NNC(=O)Nc1cccc2ccccc12	nt	14.0
101	O=C(O)C(Cc1cnc[nH]1)N1C(=O)C2C3C=CC(C3)C2C1=O (configuration not stated)	nt	-7.0
102	Nc1nnc(CCC2CCCCC2)s1	nt	4.0
103	CCS(=O)(=O)c1ccc2oc(SCC(=O)NCCc3ccccc3)nc2c1	nt	29.0
104	CCCCN1CC(O)=C(c2ccccc2)C1=N	2.2	5.0
105	CN(c1nc(N)c2c(N)nc3c(c2c1C#N)CC(=O)N3Cc1cccs1)C1CCS(=O)(=O)C1 (configuration not stated)	nt	-12.0
106	CCOC(=O)c1[nH]c(CSc2nnc(-c3ccc(OC)cc3)o2)c(C(=O)OCC)c1C	nt	-17.0
107	FC(F)(F)COc1ccc(OCC(F)(F)F)c(-c2csnn2)c1	-1.0	nt
108	CC(OC(=O)c1ccc(CN2CCCC2=O)cc1)C(=O)c1ccc(F)cc1 (configuration not stated)	nt	-5.0
109	CC(C)c1ccc(/C=N/NC(=O)CC#N)cc1	1.9	nt
110	COc1ccc2cc3cc(C(=O)NCCCN4CCCCCC4)oc3nc2c1	0.8	23.0
111	Nc1nc2c(-c3ccccc3)c(C(F)(F)F)sc2s1	-1.2	nt
112	CCCC(=O)NC(=S)Nc1cc(-c2nc3cc(CC)ccc3o2)ccc1C	1.5	6.0
113	O=C(O)CCNC(=O)c1ccccc1	-1.6&0.9	0.0
114	O=C(COc1ccc(Cl)cc1Cl)Nc1nnc(C2=COCCO2)o1	nt	5.0
115	N#CC(C(=O)Nc1cccc(C(F)(F)F)c1)=C1CCCCCC1	4.0	11.0
116	Nc1ccccc1SC(CC(=O)c1cccs1)c1cccs1 (configuration not stated)	3.3	nt
117	O=C(Nc1ccc2c(c1)OCC(=O)N2Cc1ccccc1)c1ccco1	0.8	-2.0
118	C=CCc1ccccc1OCC(O)CN1CCN(CC)CC1 (configuration not stated)	-2.6	6.0
119	Cc1cc(C)cc(NC(=O)Nc2ccccc2C(=O)Nc2cc(C)cc(C)c2)c1	2.6	10.0
120	O=C(c1ccccc1)N(C(=O)N1CCCCC1)c1ccccc1	nt	1.0
121	CCN(C(=O)Cn1cc(C(=O)C2CC2)c2ccccc21)c1ccccc1	-1.1	-5.0
